# NPYLR7 agonist = mosquito NPYLR7 agonism | activation, % at 10 µM | AID 1259423 | 270,000 compounds, 0.15% hits | HEK293T NPYLR7/Galpha15, GCaMP6s calcium fluorescence; in the data active = activation above about 40%;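 note: 0% = vehicle and 100% = reference agonist at the receptor; some compounds past the cut are filed as inactive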
# NPYLR7 agonist max-min = recorded beside NPYLR7 agonist, whose call it bears; activation, %; measured here: Max-Min RFU normalised activation; some inactives read as strong as hits;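 span of the calcium signal over five minutes; 0% = vehicle and 100% = native peptide agonist; compound fluorescence can raise it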
# Starred values were filed as active, the others as inactive; & = joins results of further samples. This is a subset; the hit share may differ from the screen's.
SMILES,NPYLR7 agonist,NPYLR7 agonist max-min
Cc1cccc(OCCN2CCN(c3ccc(S(=O)(=O)N4CCOCC4)cn3)CC2)c1,1,-1
COc1ncccc1C(=O)N1CCC(CCC(=O)N2CCC(Cc3ccccc3)CC2)CC1,4,1
CCOCC(=O)NCCc1csc2nc(-c3cccs3)nn12,-10,-9
O=C(C1CCC1)N1CCCN(C2CCNCC2)CC1,3,4
CC(C)C(NC(=O)c1ccco1)C(=O)N1CC(C)(C)C1(C)C (stereo not given),6,0
COC(=O)C1C(=O)C2=C(CC1C)N=C(C)C(C(=O)OCCOC(C)C)C2c1cccs1 (stereo not given),-1,-2
CCNC(=O)C1(C)CCN1C(=O)CCc1cccc(Cl)c1 (stereo not given),3,0
CC(=O)Nc1ccc(NC(=O)C(C2CCCC2)N2CCN(C(=O)c3cccc(C)c3)CC2)cc1 (stereo not given),3,0
CN(C)c1c(F)cc(NC(=O)c2cnn(C)c2)cc1F,4&10,2&26
FC(F)(F)c1ccc2sc(NCc3nncn3C3CC3)nc2c1,4,0
CCOC(=O)N1CCN(C(c2ccc(F)cc2)C2Sc3nc(CC)nn3C2=O)CC1 (stereo not given),-5,-13
CCOc1ccccc1N1CCN(C(=O)c2ccc(F)cc2)C(C)C1=O (stereo not given),14,25
CCNC(=O)C(C)NC(=O)c1cc(-c2ccccc2)c(N2CCOCC2)s1 (stereo not given),-2,21
O=C(O)Cn1nc(-c2ccco2)oc1=O,2,8
Cc1ccn2c(NC(C)(C)CC(C)(C)C)c(-c3ccc(OC(=O)c4ccccc4)cc3)nc2c1,-10,-6
C=CCc1cccc2cc(C(=O)Nc3c(C)n(C)n(-c4ccccc4)c3=O)c(=O)oc12,20,-4
CC(NC(=O)CN(C)Cc1ccco1)c1ccc(F)cc1 (stereo not given),8,7
C=CCN(CC(=O)N1CCc2sccc2C1COc1ccc(F)cc1)CC(O)COCC(C)C (stereo not given),13,12
CC1CCc2nc3ccccc3c(C(=O)NCC3CCCO3)c2C1 (stereo not given),3,-1
CCOC(=O)[C@@H]1CN(C(=O)c2ccc(C(F)(F)F)cc2)[C@H]2c3cccc(C)c3O[C@@H]12,1,14
Cc1cccc(S(=O)(=O)NC(=O)C2(C)CCN2C(=O)Cc2cc(F)ccc2F)c1 (stereo not given),3,0
O=C(CC1NC(=O)c2ccccc21)NCc1ccc2c(c1)CCCO2 (stereo not given),5,5
O=C(NCC(c1cccnc1)N1CCc2ccccc21)c1ccc(Cl)c([N+](=O)[O-])c1 (stereo not given),12,6
CC(=O)Nc1ccc(S(=O)(=O)N[C@@H](C)C(=O)OCc2nc3ccccc3n2C(F)F)cc1,4,14
CCOCCn1c(C2CC(=O)N(c3ccccc3)C2)nc2ccccc21 (stereo not given),12,7
CC(Sc1n[nH]c(=O)n1C1CC1)C(=O)N1CCCc2ccccc21 (stereo not given),0,-1
NC(=O)CSc1nnc(-c2cccs2)o1,1,-4
COc1ccc(-c2ccc(SCC(N)=O)nn2)cc1,3,3
COc1ccc(C(C)=O)cc1CN(C1CC1)C(C)c1ccccc1F (stereo not given),-4,-3
COc1ccc(CCNC(=O)c2cc(-c3cc(OC)c(OC)c(OC)c3)nc3ccccc23)cc1Br,22,4
COc1ccc(CCNC(=O)c2cc(C)nc3cc(C(C)(C)C)nn23)cc1OC,6,4
CC(=O)CC1(O)C(=O)N(CCCOc2cccc(C)c2)c2ccccc21 (stereo not given),17,5
CCCCN(CC(=O)N1CCc2sccc2C1c1ccc(C(C)(C)C)cc1)S(=O)(=O)CC12CCC(CC1=O)C2(C)C (stereo not given),1,11
O=C(c1cc2nc(-c3ccc(Cl)c(Cl)c3)cc(C(F)(F)F)n2n1)N1CCSCC1,-7,-14
CC(C)c1nccn1Cc1cc(C(=O)NC2CC(C)(C)NC(C)(C)C2)n[nH]1,3,-7
O=C(NCCn1ccc2ccccc21)Nc1c[nH]c2ccccc12,-4,-6
Cc1[nH]c2c(CN3CCC(CNS(C)(=O)=O)C3)cccc2c1C (stereo not given),6,2
CCOC(=O)c1cnc2ccccc2c1N(C)CC(=O)NC(C)(C)C,8,5
Nc1nc(-c2ccc3c(c2)OCO3)cs1,-5,-10
COCCn1c(SCC(=O)Nc2nc3ccc(C)cc3s2)nc2c(c1=O)SC(C)C2 (stereo not given),5,0
O=C(NCc1ccncc1)c1coc(CN(CCc2c[nH]c3ccccc23)Cc2ccc(F)cc2)n1,17,28
COCCN(CC(=O)Nc1nc(CC(=O)Nc2ccc(F)cc2)cs1)C(=O)c1ccc(OC)cc1,-12,-3
CCCCCC(=O)Nc1ncc2c(n1)CC(C)(C)CC2=O,16,5
Cc1cc(C)c(C)c(S(=O)(=O)N2CCC(C(=O)N3CCc4sccc4C3)CC2)c1C,1,7
CN1c2cc(O)c(N=NC(N)=O)cc2CC1S(=O)(=O)O (stereo not given),-4,-7
O=C(Cc1c[nH]c2ccccc12)Nc1ccc(Nc2cc(-n3ccnc3)ncn2)cc1,-15,-18
COc1cc2c(cc1OC)C(CC(=O)Nc1c(C)cc(C)cc1C)=NC(C)(C)C2,-11,-15
O=C(NC1CCN(Cc2ccccc2)C1)c1ccc2nc(-c3ccccc3)c(-c3ccccc3)nc2c1 (stereo not given),-9,-16
Cc1nc2c(=O)n(CCc3ccccc3)nc(-c3ccccc3)c2s1,11,8
CCOc1cccc2cc(C(=O)NC(C)(C)C)c(=O)oc12,-5,-4
# Additional structures.
SMILES,NPYLR7 agonist,NPYLR7 agonist max-min
CSc1ccccc1C(=O)NCCn1ncc2c(=O)n(Cc3ccccc3C)cnc21,-5,-11
CN1CC(=O)N2C[C@H](NC(=O)CCc3cccnc3)C[C@H]2C1=O,-1,-7
O=C(O)c1cc(Cl)sc1Cl,-3,-2
CCC(=O)Oc1ccc2c(=O)c(-c3ccccc3OC)coc2c1,-2,-5
CCCN(CCc1cccc(F)c1)c1nn2c(=O)ccnc2s1,2,0
Oc1c(C(c2ccncc2)N2CCOCC2)ccc2cccnc12 (stereo not given),4,3
CS(=O)Cc1cccc(C(=O)OC2CC3CCC2(C)C3(C)C)c1 (stereo not given),4,5
COc1cccc(/C=C2/SC(=Nc3ccccc3Cl)NC2=O)c1,-4,-8
COc1ccccc1-c1cccc(C(=O)N(C)Cc2cnc(N)nc2)c1,3,-2
Cn1c(-c2nc(C(=O)NCCCn3ccnc3)cs2)cc2ccccc21,3,0
O=C1OCCC1Nc1ccccc1Oc1ccccc1 (stereo not given),-2,-1
COc1ccc(-c2nc3ccccn3c2NC(=O)c2cc(OC)cc(OC)c2)cc1,-11,-3
COc1cccc(CN(CC2CC(c3ccc(C)cc3)=NO2)C(=O)NC(C)C)c1 (stereo not given),-12,-11
N#CC(=Cc1ccccc1)S(=O)(=O)c1ccc(F)cc1,0,0
Cc1ccc(C(=O)NCCCNC(=O)c2ccccc2N)cn1,20,10
CCOC(=O)C1=C(O)/C(=C\c2ccc(OC)c(OC)c2OC)SC1=Nc1cccc(F)c1,7,5
OCCCCC1OC2CCCCC2C2=CCCCC21 (stereo not given),0,-8
COc1cccc(C2NC(=O)N(C)C3=C2C(=O)N(Cc2cccnc2)C3)c1 (stereo not given),-4,19
Cc1ccc(Cn2cnc3c(nnn3C)c2=O)cc1,1,7
CCCCCCC(=O)N1CCN(c2nc(CCC)nc3c2c(C)nn3-c2ccc(F)cc2)CC1,-4,8

# Given with values under each structure: 5 of the compounds above
# Screens in order: NPYLR7 agonist, NPYLR7 agonist max-min
COc1cccc(CN(CC2CC(c3ccc(C)cc3)=NO2)C(=O)NC(C)C)c1 (stereo not given)
→ -12, -11
N#CC(=Cc1ccccc1)S(=O)(=O)c1ccc(F)cc1
→ 0, 0
Cc1ccc(C(=O)NCCCNC(=O)c2ccccc2N)cn1
→ 20, 10
CCOC(=O)C1=C(O)/C(=C\c2ccc(OC)c(OC)c2OC)SC1=Nc1cccc(F)c1
→ 7, 5
OCCCCC1OC2CCCCC2C2=CCCCC21 (stereo not given)
→ 0, -8

# Following part:
SMILES,NPYLR7 agonist,NPYLR7 agonist max-min
Cn1c(C(=O)NN2CCOCC2)ccc1-c1ccccc1,0,-1
Fc1ccc(Cn2ncc3c2CN(c2ccc4ccccc4n2)C3)cc1,-11,-11
CCc1nc2c(OCc3ccc(Cl)cc3)cccn2c1N(C=O)CC(=O)N(C)C,13,-4
O=C(COC(=O)c1ccc(Br)o1)NC(c1ccccc1)c1ccccc1,-3,-6
Cc1cc(C(=O)NC(c2ccccc2)c2ccccc2)n2nc(C(C)(C)C)cc2n1,21,17
CC1(C(=O)NS(=O)(=O)c2cccc(C#N)c2)CCN1C(=O)c1ccccc1 (stereo not given),1,-1
O=S(=O)(Nc1ccc(Br)c2cccnc12)c1ccc(S(=O)(=O)N2CCOCC2)cc1,-2,-4
CCCCCN(CC(=O)Nc1cc(C(C)(C)C)nn1-c1ccc(OC)cc1)C(=O)Nc1ccc(Cl)cc1Cl,-1,9
CCSc1nccn1-c1cc(C)ccc1C,0,-2
COc1ccc(CCN(Cc2ccc(C)o2)C(=O)CN(CCN2CCCCC2)C(=O)Nc2ccccc2C)cc1OC,2,16
C=C1c2c(Cl)ccc(O)c2C(O)=C2C(=O)[C@]3(O)C(=O)C(C(N)=O)C(=O)[C@@H](N(C)C)[C@@H]3[C@@H](O)C12 (stereo not given in full),-4,-6
Cc1cc(N2CCN(C(=O)c3cccc(Cl)c3)CC2)nc(-c2cccc(F)c2)n1,19,29
CC(c1ccccc1)N1CNc2c(c(=O)nc3n2CC(C)(C)S3)C1 (stereo not given),0,30
NC(c1csc(Nc2nccc(C(F)(F)F)n2)n1)C1CCCCC1 (stereo not given),-5,-11
CN(CCNC(=O)CCNC(=O)c1ccccc1F)S(C)(=O)=O,4,2
Cc1noc(CN(C)C(=O)C(C)Oc2ccc3oc(=O)cc(C)c3c2)n1 (stereo not given),-4,-6
Cc1cccc(CN2CCCC(C(=O)Nc3ccc(-c4cscn4)cc3)C2)c1 (stereo not given),12,4
c1ccc2ncc(-c3ccc(CN4CCCC4)cn3)cc2c1,1,-1
CC(C)OC(=O)CC(=O)COc1nc2c3c(cnc2o1)CCCC3,2,-3
Cc1occc1-c1nnc(SCC(=O)Nc2ccon2)n1C,2,-3
O=C1CN(NC(=O)c2ccc(C3SCCS3)cc2)C(=O)N1,-3,-7
S=c1[nH]c2ccccc2n1-c1ccccc1,-2,-3
COC(=O)C1=C(C)Nc2ncnn2C1c1ccc(N(C)C)cc1 (stereo not given),12,17
CC(C)CC(=O)N1CCC2(CC1)OCC(C(=O)NCc1cccc(C(F)(F)F)c1)N2C(=O)c1ccc(F)cc1 (stereo not given),1,5
O=C(Nc1cccc(-c2nc3ccccc3o2)c1)c1ccc2ccccc2c1,-10,-17
COc1ccc(OCCNC(=O)c2cncn2-c2ccc(-c3ccccc3C)cc2)cc1,-2,-9
Cc1ccc(C)c(S(=O)(=O)NN=Cc2ccc3c(c2)OCCO3)c1,-6,-10
Cc1cnn(C2CN(Cc3c(C)nn(C)c3Cl)C2)c1,-1,-2
Cc1ccc(-c2cc(C(=O)N3CCOC(C)C3)c3ccccc3n2)o1 (stereo not given),7,5
O=C1C(Cl)=C(NCCNCCO)C(=O)c2ccccc21,5,3
FC(F)Oc1ccc(-c2csc(=Nc3cccnc3)n2C2CC2)cc1,-3,-7
COc1ccc(CCNC(=O)c2cccnc2N2CCN(S(=O)(=O)c3ccc(NC(C)=O)cc3)CC2)cc1OC,19,12
CCC(NC(=O)Cn1nc(C(F)F)cc1C)c1ccnn1C (stereo not given),3,1
Cc1c(C(=O)N2CCC(C(=O)N3CCCC(C)C3)CC2)c(=O)[nH]c2ccccc12 (stereo not given),-3,-5
CN(C)C(=O)CN1CCC(OC(=O)c2ccc(Cl)cc2)CC1,10,5
O=c1c(Cl)c(Cl)cnn1-c1ccc(S(=O)(=O)NCc2ccccn2)cc1,4,1
O=C(c1cn(C2CCCCCC2)nn1)N1CCC(O)(c2ccc(Cl)cc2)CC1,-1,-5
CC1(Cc2ccc(F)cc2)C(=O)Nc2ccc(-c3ccc(F)c(Cl)c3)cc21 (stereo not given),10,7
COc1c(C)cc(C(O)c2ncc(-c3ccccc3C(F)(F)F)[nH]2)cc1C (stereo not given),1,-1
COCCCN(CC(=O)N(CCc1c[nH]c2ccccc12)Cc1ccc(F)cc1)C(=O)c1ccc(Cl)cc1Cl,-1,8

# Complete entries, looked up by structure. Order of values: NPYLR7 agonist, NPYLR7 agonist max-min
# `Cc1c(C(=O)N2CCC(C(=O)N3CCCC(C)C3)CC2)c(=O)[nH]c2ccccc12` (stereo not given) across the screens: -3, -5
# `CC1(Cc2ccc(F)cc2)C(=O)Nc2ccc(-c3ccc(F)c(Cl)c3)cc21` (stereo not given) across the screens: 10, 7
# `COCCCN(CC(=O)N(CCc1c[nH]c2ccccc12)Cc1ccc(F)cc1)C(=O)c1ccc(Cl)cc1Cl` across the screens: -1, 8
# `COc1c(C)cc(C(O)c2ncc(-c3ccccc3C(F)(F)F)[nH]2)cc1C` (stereo not given) across the screens: 1, -1
# `COc1ccc(CCNC(=O)c2cccnc2N2CCN(S(=O)(=O)c3ccc(NC(C)=O)cc3)CC2)cc1OC` across the screens: 19, 12

# Carrying on:
SMILES,NPYLR7 agonist,NPYLR7 agonist max-min
Cc1nc(SCc2ccc(C(=O)NCCc3ccccn3)cc2)nc(N2CCN(c3cccc(C(F)(F)F)c3)CC2)c1C,4,5
O=C(c1ccc(-c2cccc(C(F)(F)F)c2)o1)N1CCC(NS(=O)(=O)c2ccccc2)CC1,4,1
CCC(C(=O)N1CCC(c2[nH]ncc2-c2ccccc2)CC1)n1cccn1 (stereo not given),9,-4
Cc1noc(C)c1CCC(=O)NC1(c2ccccc2)CCC1,6,1
CC(C)N1C(=O)CSC1c1cccs1 (stereo not given),5,2

# Assay outcomes deposited in PubChem BioAssay by Fisher Drug Discovery Resource Center.
